Source: PubChem BioAssay
Mtb hypoxia inh = PubChem AID 1159583 | M. tuberculosis hypoxia-regulated fluorescent reporter, fluorescence | fluorescence inhibition, % (concentration not given with the values) | 0.1% of 300,000 active;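 active = 35 to 45% if threefold the growth effect, above 45% if 1.5-fold the growth effect; inactive = the rest, general growth blockers included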;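 note: wells of about 50 µL received 100 nL stock; 0% = vehicle wells and 100% = reference inhibitor wells; whole bacteria with a GFP reporter of the hypoxia response; strong numbers were not always called active; many hits fall short of the cut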
RN4220 kill = growth inhibition of S. aureus RN4220, primary screen, OD600 | 16 h | inhibition, % (no concentration beside the values) | AID 1259311, 2017 | 0.33% of 330,000 active;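 active = z-score of -3 or lower and OD600 up to 0.18 on both plates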;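 note: plate controls were untreated cells for no effect and reference antibiotic for full effect; stock transfer was 100 nL into about 80 µL; one replicate is shown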
PrP UTR inh = inhibition of PrP 5' UTR reporter expression | cell-based PrP 5' UTR mRNA reporter, plate reader | inhibition, % (no concentration beside the values) | 0.35% of 340,000 active;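 active = every replicate at 50% or more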;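 note: 0 = median of the neutral control wells; tested in H4 reporter cells; numbers are from one replicate; inactives centre near -14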
BJeLR lethal = MLPCN primary cell-based screen for lethality selective to Ras in HRASV12 cells; BJeLR (HRASV12) viability, CellTiter-Glo ATP luminescence, 48 h; reference of the scale not given here; inhibition, % (test concentration not listed); 0.17% of 300,000 active; AID 1554, 2009;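 active = replicate mean above 50%; inconclusive = above 50% but judged a plate artefact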;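 note: 50 nL library stock added to about 25 µL; numbers are from one replicate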
Bead autofluor = compound fluorescence in toxin protease inhibitor counterscreen | 3.1% of 360,000 active | compound autofluorescence counterscreen, microsphere flow cytometry; hits give high values | fluorescence intensity (test concentration not listed);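 active = at least 3 SD above the mean of all compounds, about 16000 in these data; inconclusive = too few beads counted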;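 note: 100 nL of 1 mM stock went into each well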
Sa ugtP lethal = growth inhibition of ugtP-null S. aureus, primary screen, RN4220 ugtP deletion, OD600. 0.54% of 330,000 active. 16 h; some inactives read as strong as hits. growth inhibition, % (concentration not given with the values). AID 1259309, 2017;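 active = z-score under -3 and OD600 up to 0.15 on both plates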;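 note: plate controls were untreated wells for no effect and antibiotic for full effect; wells of about 80 µL received 100 nL stock; the first replicate is given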
Mtb hypoxia inh growth = recorded beside Mtb hypoxia inh, whose call it bears; growth inhibition, %; measured here: M. tuberculosis growth (absorbance);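 0% = vehicle and 100% = reference antibiotic; read after six days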
* marks the source's active call; other numbers are inactive results; ? = inconclusive; / = no result given.

SMILES	Mtb hypoxia inh	Mtb hypoxia inh growth	RN4220 kill	PrP UTR inh	BJeLR lethal	Bead autofluor	Sa ugtP lethal
COc1ccc(CCNC(=O)CNS(=O)(=O)c2ccc(Br)cc2)cc1	4	-6	1.0	-25	5	3401	-1
CCCCNC(=O)CCn1c(=O)c2ccccc2n(CC(=O)Nc2ccccc2OCC)c1=O	/	/	0.2	1	0	4827	-6
CC1CN(C(=O)CCC(=O)NCc2cccnc2)c2ccccc2O1 (stereo unspecified)	-9	-2	-1.4	-15	-1	5641	-9
Cn1nc(C(C)(C)C)c([N+](=O)[O-])c1C(N)=O	6	4	3.5	-26	-7	3473	11
COC(=O)c1sccc1NC(=O)Nc1cc(C)ccc1OC	1	2	1.5	-7	-5	?	6
COc1cc(NS(=O)(=O)c2ccc(NC(=S)NC(=O)CC(C)C)cc2)nc(OC)n1	/	/	-2.0	-29	4	4122	70
CC(=O)Nc1ccc2c(c1)OCO2	8	6	-1.5	-13	0	2072	4
CCC(=O)N(Cc1cc(=O)[nH]c2ccccc12)c1ccc(C)cc1	16	0	8.1	-9	-1	4112	5
CCCCCCSc1ccc([C@H]2N[C@@](Cc3ccccc3)(C(=O)OC)[C@H]3C(=O)N(CC)C(=O)[C@@H]23)cc1	/	/	/	1	4	3268	/
O=C(NC12CC3CC(CC(C3)C1)C2)c1cccnc1Cl	23	16	2.9	-2	4	4317	3
CC(=NNC(=O)c1cccc([N+](=O)[O-])c1)c1ccncc1	7	12	0.5	/	/	/	7
Cc1ccccc1N1CCN(S(=O)(=O)c2ccc3oc(=O)ccc3c2)CC1	/	/	4.4	-2	11	4934	-3
CCn1c(N)c(C(=O)COC(=O)CCc2nc3ccccc3c(=O)[nH]2)c(=O)[nH]c1=O	-10	-2	3.1	2	/	8551	3
CCOC(=O)c1c(C)n(C)c2ccc(OC(C)=O)cc12	/	/	-2.1	-13	-4	4256	-1
COc1ccc(Nc2nc(N)nc(C(F)(F)F)n2)c(OC)c1	-2	0	3.7	-5	3	17527*	3
Cc1sc2nc(CN3CCCCC3)nc(N3CCN(C(=O)c4ccco4)CC3)c2c1C	4	7	-8.1	-54	1	5075	-7
CC[C@@H](C)C(N)c1cn([C@@H](CCC(=O)O)C(=O)N2CCNCC2)nn1 (stereo partly specified)	/	/	/	-11	8	2846	/
COc1ccc(-c2nnn(CC(=O)N3CCN(c4ccc(F)cc4)CC3)n2)cc1	5	15	3.9	-16	5	3947	8
COc1ccc(Nc2nc(NCC3CCCO3)c3ccccc3n2)c(OC)c1 (stereo unspecified)	-24	0	3.6	-10	-3	4579	-1
O=C(C1CC(c2ccc(F)cc2)=NO1)N1CCN(Cc2ccccc2)CC1 (stereo unspecified)	/	/	0.9	-8	3	5369	-1

Twelve compounds out of the list, sorted by length of the SMILES, ascending:
SMILES	Mtb hypoxia inh	Mtb hypoxia inh growth	RN4220 kill	PrP UTR inh	BJeLR lethal	Bead autofluor	Sa ugtP lethal
CC(=O)Nc1ccc2c(c1)OCO2	8	6	-1.5	-13	0	2072	4
COC(=O)c1sccc1NC(=O)Nc1cc(C)ccc1OC	1	2	1.5	-7	-5	?	6
O=C(NC12CC3CC(CC(C3)C1)C2)c1cccnc1Cl	23	16	2.9	-2	4	4317	3
Cn1nc(C(C)(C)C)c([N+](=O)[O-])c1C(N)=O	6	4	3.5	-26	-7	3473	11
CC1CN(C(=O)CCC(=O)NCc2cccnc2)c2ccccc2O1 (stereo unspecified)	-9	-2	-1.4	-15	-1	5641	-9
CC(=NNC(=O)c1cccc([N+](=O)[O-])c1)c1ccncc1	7	12	0.5	/	/	/	7
CCC(=O)N(Cc1cc(=O)[nH]c2ccccc12)c1ccc(C)cc1	16	0	8.1	-9	-1	4112	5
O=C(C1CC(c2ccc(F)cc2)=NO1)N1CCN(Cc2ccccc2)CC1 (stereo unspecified)	/	/	0.9	-8	3	5369	-1
COc1ccc(-c2nnn(CC(=O)N3CCN(c4ccc(F)cc4)CC3)n2)cc1	5	15	3.9	-16	5	3947	8
Cc1sc2nc(CN3CCCCC3)nc(N3CCN(C(=O)c4ccco4)CC3)c2c1C	4	7	-8.1	-54	1	5075	-7
CC[C@@H](C)C(N)c1cn([C@@H](CCC(=O)O)C(=O)N2CCNCC2)nn1 (stereo partly specified)	/	/	/	-11	8	2846	/
CCn1c(N)c(C(=O)COC(=O)CCc2nc3ccccc3c(=O)[nH]2)c(=O)[nH]c1=O	-10	-2	3.1	2	/	8551	3

(next part)
SMILES	Mtb hypoxia inh	Mtb hypoxia inh growth	RN4220 kill	PrP UTR inh	BJeLR lethal	Bead autofluor	Sa ugtP lethal
COc1ccc(Nc2nc(Nc3ccc(OC)cc3OC)nc(N3CCN(C)CC3)n2)c(OC)c1	-12	1	-0.2	-5	6	2604	-2
NC(=O)c1ccc(NC(=O)COC(=O)c2cccc(Oc3ccccc3)c2)cc1	-3	8	2.2	-54	-10	2175	3
O=P(OCC(F)(F)C(F)F)(N1CCCCC1)N1CCCCC1	/	/	3.2	-34	-8	4075	1
O=C1NC(=O)/C(=C/c2cccc([N+](=O)[O-])c2)N1	/	/	/	8	12	3188	/
CCCCCCCCCC(=O)NN=Cc1ccc(C)s1	0	11	-1.7	/	/	/	-13
O=C(Nc1cccnc1)C1CC(c2ccccc2O)=NO1 (stereo unspecified)	-1	6	4.6	-13	-8	4148	-3
COc1ccccc1N1CCN(CC(O)COc2ccc(C)cc2C)CC1 (stereo unspecified)	-2	-3	1.1	-23	-7	3762	-4
Fc1ccc(NC(=S)Nc2ccc(Cl)cc2Cl)cc1	-7	0	-12	/	11	/	-17
Cc1nnc(-c2ccc(Cl)cc2)[nH]c1=O	0	-7	-6.3	-1	0	2664	-4
CCCCCCOc1ccc(N2C(=O)CC(NCc3ccc(S(N)(=O)=O)cc3)C2=O)cc1 (stereo unspecified)	-1	-11	4.2	-17	-2	4416	5
COc1ccc(C(=O)CC(=O)C(=O)Nc2ccccc2OC)cc1	0	15	14	-13	5	3691	8
COC(=O)CSc1nnc(-c2sc3cc(OC)ccc3c2Cl)n1C	/	/	5.6	-5	-3	1994	-4
Cc1ccc(S(=O)(=O)N(Cc2cccc(F)c2)C(=O)N2CCN(C)CC2)cc1	0	-6	2.3	-2	1	/	2
Cc1cccc(NCc2cc(Cl)cc(Cl)c2O)n1	-16	-24	-3.9	-6	5	4342	41
CN(C)c1ccc(NC(=O)c2sc(SCC(=O)Nc3ccc(Br)cc3)nc2N)cc1	/	/	2.7	-54	7	4827	-1
O=C(CNS(=O)(=O)c1ccc(Br)s1)N1CCN(C(=O)c2ccco2)CC1	-1	0	2.2	-3	7	6883	1
CSc1ccc(S(=O)(=O)Nc2ccc(S(=O)(=O)Nc3ccc(C)cc3)cc2)cc1	4	5	-14	-20	0	12232	0
Cc1ccc(-c2cc(C(=O)N3CCN(c4ccccc4O)CC3)c3ccccc3n2)o1	5	6	4.5	-54	5	5037	-6
NC(=O)CSc1nnc(CNc2ccc(F)cc2)n1CC1CCCO1 (stereo unspecified)	-2	6	-3.1	-23	5	3211	-4
NC(=O)c1nnsc1-c1ccc(-c2snnc2C(N)=O)cc1	10	7	0.1	-22	2	5053	5
O=C(CSc1nc(CCC2CCCC2)nc2ccccc12)NCc1ccc2c(c1)OCO2	15	2	0.8	-16	16	2092	3
O=C(CCCN1C(=O)c2ccccc2C1=O)NCCc1ccc(OC(F)F)cc1	-4	3	4.8	-40	3	3933	10
O=C(O)CC(NS(=O)(=O)Cc1ccccc1)c1cccc([N+](=O)[O-])c1 (stereo unspecified)	5	12	1.7	/	2	3465	18
Cn1c(SCc2ccccn2)nnc1-c1ccccc1	9	12	-0.1	-31	2	4319	2
N#CC1=C(S)N(c2ccccc2)C(c2cccs2)NC1=O (stereo unspecified)	-9	8	10	-11	0	12749	-5
COc1ccc(NC(=S)NCCc2c[nH]c3ccccc23)c(OC)c1	13	4	12	-14	-6	2108	6
O=C(CNC(=O)c1nn(Cc2ccccc2)c(=O)c2ccccc12)Nc1ccc(F)c(F)c1F	6	2	3.7	-3	/	3028	0
O=C(NN=C/C(Br)=C/c1ccccc1)c1ccc([N+](=O)[O-])cc1	5	-7	0.8	/	/	/	-6
Cc1ccc(C)c(OCC(O)CN2CCC(Cc3ccccc3)CC2)c1 (stereo unspecified)	-19	1	3.3	-8	15	5260	-1
CSc1nc(C)c2c(n1)N(c1ccc(C(C)C)cc1)CC2	9	8	-15	-27	-13	3205	-13
BrC(/C=C\c1ccccc1)=N/Nc1nc(N2CCOCC2)nc(N2CCOCC2)n1	/	/	/	-8	-6	2056	/
CCC1(C)NC(=O)N(N=Cc2ccc(C)s2)C1=O (stereo unspecified)	1	4	5.9	/	/	/	2
C[C@H](NC(=O)c1ccccc1)C(=O)OCC(=O)Nc1sccc1C(N)=O	-4	-3	2.9	-12	/	?	-5
CC(=O)c1cccc(NC(=S)NCCCCc2ccccc2)c1	16	5	-2.6	-11	5	7286	-12
Cc1ccccc1N(CC(=O)NC1CCCC1)C(=O)C1(C)CC(=O)N=C2C=CC(Cl)=CN21 (stereo unspecified)	-3	-2	1.9	0	1	3556	12
COc1ccccc1N1C(=O)CC(Sc2n[nH]c(-c3cccc(C)c3)n2)C1=O (stereo unspecified)	4	0	20	-37	2	2425	9
COc1ccccc1NC(=S)N1CCN(c2cccc(C)c2C)CC1	-8	-8	1.8	-5	-4	4034	2
CCc1ccccc1NC(=O)c1ccccc1N1C(=O)C2C3C=CC(C3)C2C1=O (stereo unspecified)	14	8	3.9	-14	7	6164	-3
O=C(NC1CCOCC1)C1CCC(=O)N(Cc2cccc(C(F)(F)F)c2)C1 (stereo unspecified)	-4	-12	1.1	-14	-9	5925	5
C=CCOc1ccc(CNc2ccc3[nH]c(=O)[nH]c3c2)cc1OC	4	10	4.7	-12	/	4385	16
COc1ccc(-c2cccc(C(=O)Nc3ccc(OC)c(OC)c3)c2)cc1	/	/	-3.7	-6	2	3566	-5
CCOC(=O)C1CCN(C(C)=C2C(=O)c3ccccc3C2=O)CC1	/	/	3.9	-11	1	3413	8
Cc1cc(C)c(S(=O)(=O)Nc2cc(C)on2)c(C)c1	5	-4	5.6	-26	5	/	7
O=[N+]([O-])c1cc(C=Nn2cnnc2)ccc1N1CCCC1	7	-10	-2.1	/	/	/	-3
O=C(O)c1cccc(NC(=O)c2ccccc2NC(=O)c2ccco2)c1	/	/	3.3	-7	0	5259	8
CCC(C)N(C(=O)COC(=O)Cc1n[nH]c(=O)c2ccccc12)C1CCS(=O)(=O)C1 (stereo unspecified)	0	3	-1.2	-7	6	3216	-4
O=C(N/C(=C/c1ccccc1)C(=O)N1CCCCCC1)c1ccccc1	7	7	1.2	-14	-9	4345	0
CCN(CC)S(=O)(=O)c1ccc(-c2cc(C(=O)OC)sc2C(F)(F)F)cc1	21	-5	2.4	/	0	3521	-15
CCC1Nc2ncnc(N3CCOCC3)c2N(Cc2ccc(C)cc2)C1=O (stereo unspecified)	/	/	/	-29	1	2871	/
Cc1c(-c2ncn[nH]2)sc(C#N)c1-c1ccccc1	-2	-2	-4.0	-23	-4	4591	55
CSc1ccccc1C(=O)OCC(=O)Nc1ccc(N2CCOCC2)cc1	14	10	-5.1	-4	/	3865	-1
CC(O)CNCCCOc1ccccc1OCc1ccccc1 (stereo unspecified)	11	10	7.4	2	-1	4409	4
Clc1cccc(OCCCCCN2CCOCC2)c1	14	5	4.5	-23	-3	3496	14
CCOC(=O)c1ccc(S(=O)(=O)N2CCN(S(=O)(=O)CC)CC2)cc1	/	/	-4.4	-31	-5	5312	2
NC(=O)CC(NC(=O)Cc1ccc(Cl)cc1)c1ccc(NC2CCN(Cc3ccccc3)CC2)c([N+](=O)[O-])c1 (stereo unspecified)	6	6	7.3	-46	10	3442	1
CCSc1ccccc1C(=O)NC1CCCCC1	-7	7	2.3	-2	0	4259	-3
